High-throughput results: PubChem, National Center for Advancing Translational Sciences (NCATS)
ClpP mod: qHTS Assay for Activators of ClpP. purified B. subtilis ClpP, FRET peptide cleavage, 20 min. ATP-dependent Clp protease proteolytic subunit (Bacillus subtilis (strain 168)), P80244. Potency, µM (series often up to 57.5 µM), without a hit: at the highest dose activity change, negative = active. hit rate 1.9% among 340,000; active = well fitted falling curve with a large enough effect; inconclusive = small, poorly fitted or top-dose-only effect; inactive = no such curve, though single readings can be large or run the other way; note: potency is the fitted concentration of half-maximal effect; the source files actives as falling curves though it sought activators and does not explain the sign; nearly all actives have a fitted effect of over 65% in size; many hits overshoot -100%
Target sequence (P80244 whole entry, looked up): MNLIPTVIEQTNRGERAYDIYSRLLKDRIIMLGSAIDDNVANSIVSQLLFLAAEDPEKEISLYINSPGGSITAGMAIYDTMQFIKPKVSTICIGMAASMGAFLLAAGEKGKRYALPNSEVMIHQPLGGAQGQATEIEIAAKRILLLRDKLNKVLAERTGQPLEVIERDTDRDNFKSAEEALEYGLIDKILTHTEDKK
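Purified B. subtilis ClpP, 10 microg/mL final in Tris/HCl pH8 with KCl, BSA, glycerol and Tween-20, cleaved an Abz/nitrotyrosine-quenched decapeptide. Fluorescence (ex 320, em 430) was read at 0 and 20 min at room temperature. Delta was normalized to 5.8 microM ADEP and DMSO/no-enzyme controls.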
Sfp PPTase inh: qHTS Assay for Inhibitors of Bacillus subtilis Sfp phosphopantetheinyl transferase (PPTase); Biochemical Sfp PPTase activity, qHTS; Potency, µM, inactives show max response, negative = inhibition, most hits filed as inhibitors; hit rate 3.5% among 310,000; active = well fitted inhibition curve with a large enough effect; inconclusive = small, poorly fitted or top-dose-only effect, or another doubt; inactive = no such curve, though single readings can be large or run the other way;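 note: the enzyme is Sfp with the accession as filed and its product quenches rhodamine fluorescence; potency is the fitted concentration of half-maximal effect; 0% = enzyme reaction without inhibitor and -100% = no enzyme wells; top concentration of the series not given in the record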
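Step 1, compound plus 15 nM Sfp-PPTase, 15 min, room temperature. Step 2, add rhodamine-CoA (5 uM) and BHQ-2-YbbR (12.5 uM). Step 3, read 525/598 nm fluorescence at 0 and 30 min.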
TRPML1 blocker: qHTS for Inhibitors of the Human Mucolipin Transient Receptor Potential 1 (TRPML1) | Mucolipin-1 (Homo sapiens), Q9GZU1 | TRPML1-inducible cells, Ca2+ dye fluorescence, FDSS; hits give low values; inhibition of EC80 agonist-evoked calcium signal | activity change, negative = inhibition, % (test concentration not listed) | hit rate 0.02% among 390,000 | AID 624415, 2012; in the data active means activity change below about -50%; inconclusive means about -30% to -50%; inactive means above about -30%;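 note: stimulus is agonist 54-4 at its EC80 concentration; % is set by controls: 0 for no effect and ±100 for the full control effect; compound concentration not given in the record; the text of the record puts the active cut at -80%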
Target sequence (Q9GZU1 whole entry, looked up): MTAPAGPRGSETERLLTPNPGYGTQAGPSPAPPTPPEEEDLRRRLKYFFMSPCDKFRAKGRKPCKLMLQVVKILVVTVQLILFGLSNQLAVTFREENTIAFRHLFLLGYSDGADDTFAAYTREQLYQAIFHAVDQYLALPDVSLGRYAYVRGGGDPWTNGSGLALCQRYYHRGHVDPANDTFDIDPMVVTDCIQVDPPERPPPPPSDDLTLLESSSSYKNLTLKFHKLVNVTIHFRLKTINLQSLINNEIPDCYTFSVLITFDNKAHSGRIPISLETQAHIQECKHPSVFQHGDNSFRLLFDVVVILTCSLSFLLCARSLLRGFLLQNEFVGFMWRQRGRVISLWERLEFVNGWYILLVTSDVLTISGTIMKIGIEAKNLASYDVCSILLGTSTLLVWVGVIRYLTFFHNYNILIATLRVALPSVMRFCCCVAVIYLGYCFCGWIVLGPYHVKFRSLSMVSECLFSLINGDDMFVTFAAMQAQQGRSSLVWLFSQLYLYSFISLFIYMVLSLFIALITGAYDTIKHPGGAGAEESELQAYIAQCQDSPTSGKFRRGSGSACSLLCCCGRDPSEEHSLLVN
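Tet-induced TRPML1-DL cells loaded with Ca8 no-wash calcium dye were read kinetically on FDSS. Compound addition was followed by EC80 agonist 54-4 (4 uM final); inhibition was read over 110 s.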
PINK1 modulator: A Quantitative High throughput Screen to Identify Chemical Modulators of PINK1 Expression; Potency, µM (series often up to 76.6 µM), for inactives: at the top dose activation (PINK1 increase), most hits filed as activators; PINK1 immunofluorescence, high-content cytometry, 24 h; hit rate 0.2% among 410,000; active = well fitted activation curve with a large enough effect; inconclusive = small, poorly fitted or top-dose-only effect; inactive = flat fitted curve, though single readings scatter; cell line not stated here;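 note: potency is the fitted concentration of half-maximal effect; % of control where 0% means no effect; nearly all actives have a fitted effect of over 65% in size; a mitochondrial uncoupler was the plate control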
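Measures PINK1 amount and localization on or inside mitochondria by immunofluorescence. Stable cells get compounds at 5 concentrations for 24 hours before fixation and staining; CCCP controls included.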
TRPML1 agonist: qHTS for Agonists of the Human Mucolipin Transient Receptor Potential 1 (TRPML1) | TRPML1-expressing cells, Ca2+ dye fluorescence, FDSS; host cell line not named in the record; reference of the full effect not given here | activation, % (concentration not given with the values) | hit rate 0.12% among 410,000; in the data active = activation above about 50%; inconclusive = about 30% to 50%; inactive = below about 30%; note: 0% is about no effect; the text of the record puts the active cut at 80%
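Tetracycline-induced TRPML1-DL cells are seeded and incubated overnight before loading with a no-wash Ca2+ dye and quencher. Agonist activity is taken from the 110 s fluorescence read following compound pin-transfer on an FDSS, before EC80 54-4 challenge.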
Menin-MLL FL inh: qHTS Assay for Inhibitors Targeting the Menin-MLL Interaction in MLL Related Leukemias: Competition With Fluorescein Labeled MLL-derived Peptide. Fluorescence polarization, fluorescein-MLL peptide displacement from menin. AID 1766, 2009. 290,000 tested, under 10 active. FP activity change, % at 61.4 µM; inconclusive = falling polarisation curve, or a change in total fluorescence; inactive = total fluorescence flat and polarisation flat or rising; no compound was filed as active; the % refers to the polarisation; negative = inhibition;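 note: % of control where 0% means no effect; inhibitors lower the polarisation; unlabelled MLL peptide was the positive control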
TRPV1 potentiator: HTS Assay for Compounds that Act as Potentiators of the Vanilloid Receptor 1; potentiation, % at 8.33 µM; hit rate 0.02% among 320,000; TRPV1-expressing cells, Fluo-8 calcium influx, capsaicin EC20 potentiation; host cell line not named in the record; control for the full effect not named in the record; AID 540277, 2011; active means potentiation above 80%; inconclusive means 30% to 80%; inactive means below 30%; note: 0% is about no effect
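Cells expressing TRPV1 were dye-loaded with Fluo-8 and read kinetically: 10 s baseline, 3 min after compound (agonist portion), then 2 min after EC20 capsaicin (allosteric enhancer portion). Calcium-bound dye fluorescence at 480/520 nm.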
* = called active by the depositor; u = inconclusive; x = no result given; & = joins results of further samples; ! = repeats disagree; [ ] = dose if it differs, or a comment. Hits appear at their usual frequency. Share with any hit: about 4.4%.

Structure	TRPV1 potentiator	ClpP mod	Sfp PPTase inh	TRPML1 blocker	Menin-MLL FL inh	TRPML1 agonist	PINK1 modulator
O=C(Nc1ccc(Oc2ccccc2)cc1)C1CCN(c2c3c(nc4ncnn24)CCC3)CC1	17.5	-6.9%	-5.7%	4.2	3.7	3.6	-5.6%
N#CCCC(CCC#N)(CCC#N)c1cc[n+](CCc2ccccn2)cc1	-1.1	-1.8%	x	3.9	x	-0.7	1.3%
Cc1ccc2cc(C=O)c(N(C)C)nc2c1	-6.9	u	5.5%	5.1	5.6	0.7	6.3%
NS(=O)(=O)c1ccc(NC(=O)CN2CCCC2)cc1	-8.9	x	17.7%	15.3	-1.8	-0.7	-2.1%
Cc1ccc(S(=O)(=O)C(CNC(=O)COc2ccccc2)c2cccs2)cc1 (configuration not stated)	x	0.1%	x	4.7	x	1.6	1.3%
COc1cccc(NC(=O)C2(C)CCN2C(=O)CC2CCCC2)c1 (configuration not stated)	x	-1.9%	x	x	x	-0.6	0.0%
COc1ccc(-c2oc3ncn4nc(-c5ccccc5C)nc4c3c2-c2ccc(OC)cc2)cc1	x	-14.6%	x	-17.7	x	0.3	1.9%
O=C(c1ccco1)N1CCN(C2CN(Cc3cn(Cc4ccccc4C(F)(F)F)nn3)S(=O)(=O)C2)CC1 (configuration not stated)	x	-0.4%	x	-2.1	x	-0.4	-0.1%
N#Cc1ccc(Nc2nc(-c3ccccc3)c(C(=O)c3ccccc3)s2)cc1	x	-10.7%	x	x	x	0.0	u
CC(C)CC1Nc2ccc(C(=O)NCc3ccc4c(c3)OCO4)cc2NC1=O (configuration not stated)	1.3	x	6.9%	-16.0	-0.9	1.1	7.4%
COc1ccc(C(=O)N/N=C/C(=O)c2ccccc2)cc1	-5.8	0.8%	16.7%	-17.3	-1.6	0.7	-0.6%
O=C(N=C1SC2CS(=O)(=O)CC2N1Cc1ccccc1Cl)C1CC1 (configuration not stated)	11.4	-1.3%	14.3%	29.3	0.6	0.8	1.1%
CC(=NNC(=O)c1ccncc1)c1cccc(Cl)c1	x	x	x	-5.4	x	0.6	-2.2%
COc1ccc(-c2cc(C(=O)NCc3cccnc3)no2)cc1OC	-5.5	-6.4%	-6.2%	18.0	-2.5	0.1	1.8%[38.3 µM]
Cc1cccc(C(=O)N2CCN(S(=O)(=O)N3CCCCC3)CC2)c1	-0.2	-0.5%	13.9%	4.0	x	1.0	-0.5%
CC(C)C(=O)Nc1ccc([N+](=O)[O-])c(C(F)(F)F)c1	-13.4	1.6%&1.5%	13.4%&-9.9%&20.3%&12.5%	-23.4	5.3	-0.4&-0.9	1.8%&0.0%
CCC1CCC(C(=O)NC(C(=O)NCCCN2CCCCC2C)C(C)C)CC1 (configuration not stated)	1.6	x	13.0%	-10.1	-3.8	-0.2	1.1%
COc1ccccc1-c1nnc(SCC(=O)c2c(N)n(C3CC3)c(=O)[nH]c2=O)o1	10.9	1.0%	x	10.1	x	0.1	u
CC(=O)Nc1ccc(Cc2nc3c([nH]2)c(=O)n(C)c(=O)n3C)cc1	8.4	x	7.1%	x	13.9	x	x
C[C@@H](c1ccccc1)N1C[C@@H](COCc2ccccc2)Oc2cc(N3CC[C@H](O)C3)ccc2S1(=O)=O	x	-16.6%	x	x	x	-0.7	-0.1%
CCOc1ccc(/C=C/c2nc(C#N)c(NC3CCCCC3)o2)cc1	x	u	x	5.5	x	-0.5	1.6%
CC(=O)C1=C(c2ccccc2)OC(N)=C(C#N)C1c1ccc(O)cc1 (configuration not stated)	8.7	-4.0%	-15.8%	-0.2	31.0[activator]	0.8	-1.5%
COc1ccc(C2c3ccc(O)cc3Oc3ncn4nc(-c5ccccn5)nc4c32)cc1 (configuration not stated)	-4.8	-0.3%	18.0%	5.0	u	2.3	14.4%
CC(C)(C)NS(=O)(=O)c1ccc2nc(NC(=O)c3cccnc3)sc2c1	x	-3.2%	x	-0.7	x	-0.8	-0.5%
COc1ccc2c(c1)c(=O)oc1c(C)c(OCc3ccc(C(=O)O)cc3)ccc12	5.8	3.6%	-11.7%	-14.4	9.7	0.0	4.8%
Cc1cccc(N2CCN(C(c3cccs3)c3nnnn3C(C)(C)C)CC2)c1C (configuration not stated)	-4.9	-0.4%	2.0%	22.7	0.5	-0.2	x
CCC(C)NC(=O)COc1ccc(S(=O)(=O)N2CCOCC2)cc1 (configuration not stated)	13.3	0.5%	13.6%	15.4	-1.0	-0.1	x
O=C(/C=C/c1ccccc1)N/C(=C/c1ccccc1)C(=O)Nc1cccc(C(=O)O)c1	-15.4	x	19.6%	4.7	-0.2	0.1	0.7%
O=C(CCc1ccc(O)cc1)c1c(O)cc(O)cc1O	11.1	1.3%&1.7%	50.1µM*!	-13.0	u	2.5&-0.3	0.1%&-0.1%&-0.1%
c1ccc(CNc2c3ccccc3nc3ccccc23)cc1	10.1	-8.5%	7.0%	7.4	-7.3	3.7	-1.1%
O=C1CCN(c2ccc([N+](=O)[O-])cc2F)CC1	0.6	x	9.9%	-15.9	2.2	0.3	0.6%
O=C(Nc1nnc(S(=O)(=O)N2CCCCC2)s1)c1ccc(Cl)cc1	15.2	0.0%&2.5%	9.9%	26.1&-0.5	-0.8	0.0&1.0	-0.1%&0.1%
Cc1nn(-c2ccccc2)c(C)c1/C=N/NC(=O)CSc1nnc(-c2ccccc2)n1-c1ccc(Cl)cc1	-30.6	x	-7.3%	-4.3	-17.7	0.6	2.2%
CCn1c(SCCOc2ccc(Cl)cc2)nnc1-c1cccs1	3.9	-28.9%	14.6%	-5.0	3.1	0.2	-0.1%
COC(=O)c1ccccc1NC(=O)c1nn(-c2ccc(OC)cc2)c(=O)c2c1c1ccccc1n2C	x	u	x	-4.7	x	1.3	0.0%
OC(c1ccccc1)(c1nc(-c2ccc(F)c(Cl)c2)cs1)C(F)(F)F (configuration not stated)	x	-0.6%	x	x	x	2.0	6.8%
Cc1cc(C)c(OCC(=O)NCC2CCCO2)c(C)c1 (configuration not stated)	-12.2	x	11.9%	-6.4	2.1	-0.9	2.3%
Cc1ccc(C(C(=O)NCc2ccco2)N(CCc2ccccc2)C(=O)Cn2nnc3ccccc32)o1 (configuration not stated)	23.9	-0.9%	-4.3%	23.0	0.1	1.1	12.9%
Cc1ccc(S(=O)(=O)c2nc(-c3ccccc3Cl)oc2N2CCCCCC2)cc1	x	17.8µM*	x	0.6	x	0.5	-0.3%
O=C(c1ccc(Br)cc1)N(C1=NCCCCS1)c1ccccc1	-3.2	-1.8%	11.3%	5.5	0.2	-1.5	-1.6%
COc1ccc(C2C(C(=O)N3CCN(c4ccccn4)CC3)CCC(=O)N2c2ccc(OC)cc2)cc1 (configuration not stated)	-9.5	3.8%	13.8%	22.6	12.1	0.3	3.3%
Cc1ccc(N(C)C(=O)c2cc(S(=O)(=O)N3CCOCC3)cn2C)cc1	x	-1.6%	x	-3.4	x	-0.5	-0.6%
CCN(CC(=O)NCc1ccc(Cl)cc1)C(=O)CSc1ccc(F)cc1	-9.9	0.9%	x	24.3	x	-1.0	2.7%
CCCCNC(=O)c1ccccc1NC(=O)c1ccccc1N(C)S(C)(=O)=O	x	-3.0%	50.1µM*	-4.6	-2.1	-0.3	-1.4%
N#CCCN1CCN(S(=O)(=O)c2ccc3c(c2)CCC3)CC1	-9.1	1.9%	x	-29.2	x	-0.1	-0.8%
O=C(NCc1ccc2c(c1)OCO2)c1ccc(Br)s1	-9.9	-1.5%	7.6%	x	-0.6	x	0.2%
CC(=O)c1cc2c(cc1NS(=O)(=O)c1ccccc1Br)OCO2	5.3	-12.4%	-13.7%	12.9	2.8	0.9	4.8%
Cc1n[nH]c(=O)c2c(NC(=O)CSc3nnc(-c4ccncc4)n3C)oc(C)c12	18.5	31.6µM*	26.9%	5.3	x	0.5	-1.2%
CC1(C)CC(=O)C2=C(C1)Nc1ncnn1C2c1ccccn1 (configuration not stated)	0.2	-10.5%	5.0%	-6.7	-1.0	-0.5	0.7%
COc1ccc(Cl)cc1NC(=O)CN(C)C(=O)Cc1ccsc1	1.6	-1.2%	x	25.4	x	-0.3	2.0%
Clc1ccc(C2=Nn3c(Cn4nnc5ccccc54)nnc3SC2)cc1	2.3	-0.2%	31.6µM*	-19.6	-0.3	-0.9	4.1%
COCCNc1c2c(c(C#N)c3nc4ccccc4n13)CCCC2	-13.0	-0.7%	-14.1%	6.8	8.7	0.3	-0.8%
CCSc1cc(N2CCCC2)nc(-c2ccc(F)cc2)n1	-1.3	-10.0%	8.3%	-2.1	-2.3	0.4	-0.7%
COc1cc(C(=O)Nc2ccc(NC(=O)C3CC3)nc2)cc(OC)c1OC	6.2	2.6%	12.1%	5.9	1.2	1.8	-0.6%
Cc1cccc(CN2CCC(n3nccc3NC(=O)CCCc3ccccc3)CC2)c1	x	0.9%	x	3.8	x	-0.5	-0.3%
C/C=C(\C)C(=O)OC(C)(C)[C@H]1Cc2cc3ccc(=O)oc3cc2O1	-14.1	3.8%	1.2%	x	4.5	x	1.6%
O=C(CN1CCOCC1)Nc1ccc(F)cc1	-1.8	1.1%	3.0%	32.7	-14.7	3.4	1.8%
Cc1ccc(C)c(N(Cc2cc3ccc(C)cc3[nH]c2=O)C(=O)c2ccco2)c1	-23.4	-27.0%	-16.1%	5.5	-3.1	1.0	-0.8%
COC(=O)[C@@H]1C[C@]2(OC(=O)c3ccccc3)C=CC(=O)C[C@@H]2N1C(=O)OCc1ccccc1	-16.4	-0.6%	-2.4%	20.7	3.2	-0.7	-0.8%
COc1ccc(/C=N/Nc2ncnc3scc(-c4ccccc4)c23)cc1OC	14.1	-9.1%	3.4%	-5.5	9.3	-0.4	20.2%[38.3 µM]
Cc1cc(NC(=O)c2cc(-c3ccco3)on2)n(-c2ccccc2)n1	2.8	-4.6%	-5.2%	-7.2	6.0	3.1	u
CCCCn1c(N)c(-c2nc3ccccc3o2)c2c([N+](=O)[O-])nn(C)c(=O)c21	26.7	x	4.6%	-7.6	2.6	0.6	7.1%
